Screens as filed in PubChem.
PINK1 modulator: A Quantitative High throughput Screen to Identify Chemical Modulators of PINK1 Expression; PINK1 immunofluorescence, high-content cytometry, 24 h; hit rate 0.2% among 410,000; AID 624263, 2012; Potency, µM (series often up to 76.6 µM), for the others: at the top dose activation (PINK1 increase), most hits filed as activators; active = well fitted activation curve with a large enough effect; inconclusive = small, poorly fitted or top-dose-only effect; inactive = flat fitted curve, though single readings scatter; cell line not stated here;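 further: potency means the concentration at half of the fitted maximal effect; % of control where 0% means no effect; nearly all actives have a fitted effect of over 65% in size; a mitochondrial uncoupler was the plate control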
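Fluorescence from anti-PINK1 antibody, together with nuclear and cell stains, was scanned on a laser-scanning cytometer. Before staining, stable-line cells were incubated 24 hours with compounds at 5 concentrations; primary antibody 12 h at 10 degrees C.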
D2 ag: Beta-Arrestin HTS for Positive Allosteric Modulators of the Human D2 Dopamine Receptor: Agonists; DiscoveRx PathHunter D2 beta-arrestin, luminescence, 90 min; 100% = 57 uM dopamine signal; hit rate 0.084% among 360,000; D(2) dopamine receptor (Homo sapiens), P14416; activation, % (concentration not given with the values); in the data active = activation above about 40%; inconclusive = about 15% to 40%; inactive = below about 15%; further: compound concentration not given in the record; the text of the record calls up to 30% inactive
Target sequence (P14416 whole entry, looked up): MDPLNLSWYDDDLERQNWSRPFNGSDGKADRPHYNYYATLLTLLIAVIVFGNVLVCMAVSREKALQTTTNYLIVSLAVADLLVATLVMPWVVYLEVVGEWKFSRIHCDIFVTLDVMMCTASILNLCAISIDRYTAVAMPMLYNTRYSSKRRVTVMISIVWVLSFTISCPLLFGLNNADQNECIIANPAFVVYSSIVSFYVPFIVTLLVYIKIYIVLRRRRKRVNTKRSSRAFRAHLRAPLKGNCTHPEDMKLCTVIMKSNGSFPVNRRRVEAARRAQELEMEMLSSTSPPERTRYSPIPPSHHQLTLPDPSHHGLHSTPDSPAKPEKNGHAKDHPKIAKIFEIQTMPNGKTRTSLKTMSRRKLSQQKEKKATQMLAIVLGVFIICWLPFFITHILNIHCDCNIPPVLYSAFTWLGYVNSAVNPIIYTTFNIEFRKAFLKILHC
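Agonist mode: compounds alone added to overnight-plated D2 PathHunter cells for 90 min at 37 C, with 57 uM final dopamine (EC100) defining full response. Beta-arrestin recruitment detected by chemiluminescent reagent, read after 1 h at ambient temperature.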
TRPML1 ag: qHTS for Agonists of the Human Mucolipin Transient Receptor Potential 1 (TRPML1); TRPML1-expressing cells, Ca2+ dye fluorescence, FDSS; host cell line not named in the record; reference of the full effect not given here; Mucolipin-1 (Homo sapiens), Q9GZU1; activation, % (no concentration beside the values); hit rate 0.12% among 410,000; AID 624414, 2012; in the data active = activation above about 50%; inconclusive = about 30% to 50%; inactive = below about 30%; further: 0% is about no effect; the text of the record puts the active cut at 80%
Target sequence (Q9GZU1 whole entry, looked up): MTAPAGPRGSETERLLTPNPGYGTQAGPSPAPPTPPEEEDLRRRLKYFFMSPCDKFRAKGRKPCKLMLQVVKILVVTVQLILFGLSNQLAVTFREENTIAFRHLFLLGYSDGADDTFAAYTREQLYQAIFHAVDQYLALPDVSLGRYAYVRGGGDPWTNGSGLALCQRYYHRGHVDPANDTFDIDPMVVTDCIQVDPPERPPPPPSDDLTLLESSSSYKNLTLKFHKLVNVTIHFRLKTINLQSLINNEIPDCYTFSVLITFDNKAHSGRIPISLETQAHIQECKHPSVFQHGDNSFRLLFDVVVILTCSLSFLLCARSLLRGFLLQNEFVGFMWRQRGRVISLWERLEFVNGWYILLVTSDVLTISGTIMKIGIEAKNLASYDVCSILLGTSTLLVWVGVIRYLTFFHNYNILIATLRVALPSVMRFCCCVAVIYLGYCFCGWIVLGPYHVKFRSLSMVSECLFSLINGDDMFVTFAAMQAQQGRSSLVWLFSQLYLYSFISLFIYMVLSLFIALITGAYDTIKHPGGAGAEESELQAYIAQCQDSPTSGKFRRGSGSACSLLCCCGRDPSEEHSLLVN
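Tet-induced TRPML1-DL cells, 1,500 per well, cultured overnight, were loaded with a no-wash Ca2+ dye for 45–90 min. Calcium fluorescence was recorded on the FDSS for 110 s after compound addition, before the EC80 agonist (4 uM 54-4) was added.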
CtBP-E1A blk: qHTS Assay for Inhibitors of the CtBP/E1A Interaction; CtBP / adenovirus E1A interaction (AlphaScreen); AlphaScreen GST-E1A/His-CtBP binding, 1536-well; hits give low values; control for the full effect not named in the record; activity change, % (test concentration not listed); hit rate 0.49% among 340,000; AID 651724, 2012; in the data active means activity change below about -65%; inconclusive means about -30% to -65%; inactive means above about -30%; further: on the % scale 0 is the no-effect control and ±100 the full control effect; compound concentration not given in the record
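GST-E1A and His-tagged CtBP (125 nM each as 5X stock) were preincubated with pin-transferred compound for 2 h at 37 °C in the dark, then glutathione donor and nickel acceptor beads were added for 1 h before AlphaScreen reading.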
Six1-Eya2 inh: qHTS Assay for Inhibitors of the Six1/Eya2 Interaction; AlphaScreen GST-Six1/His-Eya2 binding, biochemical; hits give low values; control for the full effect not named in the record; activity change, % (test concentration not listed); hit rate 0.56% among 360,000; AID 651725, 2012; in the data active = activity change below about -65%; inconclusive = about -30% to -65%; inactive = above about -30%; further: on the % scale 0 is the no-effect control and ±100 the full control effect; compound concentration not given in the record
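Compounds are tested against tagged Six1 and Eya2 proteins bridged by glutathione donor and nickel acceptor beads; after a one-hour incubation at 37 °C without light, AlphaScreen emission is recorded.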
D2 PAM: Beta-Arrestin HTS for Positive Allosteric Modulators of the Human D2 Dopamine Receptor: Potentiators | D(2) dopamine receptor (Homo sapiens), P14416 | DiscoveRx D2 beta-arrestin cells, luminescence, 90 min; 100% = 57 uM dopamine signal | potentiation, % (concentration not given with the values) | hit rate 0.23% among 360,000; active = potentiation of 50% or more; inconclusive = 30% to 50%; inactive = 30% or less;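 further: compound concentration not given in the record; tested on top of an EC20 dose of dopamine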
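PathHunter beta-arrestin assay in DiscoveRx D2 cells. Compounds were added with an EC20 of dopamine (50 nM final) for 90 min at 37 deg C. Luminescence was read 1 h after detection reagent, with 57 uM dopamine as the EC100 control.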
* hit, by the source's call; ? = inconclusive; · = no result given; & = joins results of further samples; [ ] = another dose, or the depositor's remark.

Screens in order – PINK1 modulator	D2 ag	TRPML1 ag	CtBP-E1A blk	Six1-Eya2 inh	D2 PAM
CCCCn1c(N)c(N(CC(C)C)C(=O)C2CCN(S(=O)(=O)c3ccc(C)c(C)c3)CC2)c(=O)[nH]c1=O
    -1.0%	-1.7	0.6	1	5	1
Cc1ccc(C(C(=O)NC2CCCCC2)N(CC2CCCO2)C(=O)CNC(=O)c2ccco2)cc1 (stereo not drawn)
    -0.7%	0.1	-0.8	3	3	-4
O=c1c(-c2ccc(O)cc2)coc2cc(OC3OC(CO)C(O)C(O)C3O)ccc12 (stereo not drawn)
    -0.4%	-2.3	-0.5	4	1	-1
O=C(CSc1nnnn1C1CC1)Nc1cc(S(=O)(=O)N2CCCC2)ccc1Cl
    1.1%	-0.9	2.9	2	-4	-7
Cc1ccccc1N1CC(O)(c2cccs2)[N+]2=C1CCCC2 (stereo not drawn)
    2.2%	0.6	0.4	-2	5	1
COc1cc(Cl)c(NS(=O)(=O)c2ccc(-c3ccc(=O)[nH]n3)o2)c(OC)c1
    0.6%	-0.1	-0.3	-10	-4	-5
COc1cc(CCC(=O)N2CCN(c3ncccn3)CC2)cc(OC)c1OC
    -0.2%	8.4	-0.1	8	-5	0
Cn1cc2cccc([N+](=O)[O-])c2n1
    2.0%	-3.8	0.1	4	-1	-7
O=C(CN(C1CCCCC1)S(=O)(=O)c1ccccc1)NCc1cccnc1
    1.9%	-0.7	-0.5	4	14	8
O=C(CCCOc1ccc(Cl)cc1Cl)NCCc1ccccn1
    1.1%	-6.6	0.6	-16	0	-10
COc1ccc(N2CSC(=S)N(c3ccc(OC)cc3)C2)cc1
    2.8%	-4.2	-0.8	-5	-4	-7
O=C(c1[nH]c(C(F)(F)F)nc1-c1ccccc1)N1CCc2ccccc2C1
    1.1%	-3.4	-0.3	4	-2	-2
COc1ccc(Nc2ncc(C(=O)O)c3ccccc23)cc1
    ?	-3.0	0.3	2	1	-11
Cc1nc(C)n(C(C)CC(=O)O)n1 (stereo not drawn)
    -1.0%	1.5	0.7	-7	7	-4
COc1ccccc1CNC(=O)Cn1cccc1
    -0.3%	-0.9	-0.7	1	-4	2
CCC1Oc2ccccc2N(CC(=O)NCCc2ccc(OC)c(OC)c2)C1=O (stereo not drawn)
    -0.3%&-1.9%	-3.1	1.8&0.5	3	3	3
COc1ccccc1Nc1nc(N)nc(CSc2nnc(C)s2)n1
    7.5%	-0.6	0.8	-24	-19	10
CC(=O)/C(C#N)=C1\NC(=O)C(Cc2ccccc2)S1 (stereo not drawn)
    -2.3%	-2.6	4.2	-1	0	-10
CCOC(=O)c1sc(NC(=O)Cc2c(F)cccc2Cl)nc1C
    0.4%	-7.3	2.1	-9	-1	-1
CC(=O)Nc1ccc(C(=S)NCC2(N(C)C)CCCCC2)cc1
    1.2%	-5.9	0.6	0	5	-15
O=C(CS(=O)(=O)c1ccccc1)Nc1nc(-c2ccccc2)cs1
    6.4%	-3.5	0.0	0	0	14
Cc1ccc(S(=O)(=O)NCCOc2nc(N3CCOCC3)nc(N3CCOCC3)n2)cc1
    -4.0%[38.3 µM]	1.8	-0.5	12	7	1
COc1ccc(-c2nnc(SCC#N)o2)cc1
    -0.9%	-0.3	-0.4	-4	4	4
CSc1nnnn1CCn1nnnc1SC
    0.8%	-3.8	-0.3	5	24	-10
CCOC(=O)C1CCN(c2cc3c(cc2NC(=O)c2ccccc2OCC)n(C)c(=O)n3C)CC1
    -1.5%	-2.2	0.9	-29	-20	8
CCOc1cc(CNn2cnnc2)cc(Cl)c1OCC(=O)NC(C)(C)C
    1.9%	-3.4	-0.3	5	4	1
Cc1nc2nc(-c3cccnc3)[nH]n2c(=O)c1C
    -1.1%	-2.1	0.8	1	8	-4
O=C(CCC(=O)Nc1ccc(Br)cc1)N/N=C/c1ccccc1O
    7.3%	-5.1	0.8	-1	5	-9
COc1ccc(NS(=O)(=O)c2cn(C)cn2)cc1OC
    -1.2%	-0.5	0.7	·	1	-4
COc1ccc(CCN2CC(C(=O)N(C)CCc3cn[nH]c3)CCC2=O)cc1 (stereo not drawn)
    -1.3%	1.5	3.0	·	2	-5

(more compounds)
Screens in order – PINK1 modulator	D2 ag	TRPML1 ag	CtBP-E1A blk	Six1-Eya2 inh	D2 PAM
CC(C)Oc1ccccc1/C=N/NC(=O)C1CC1
    -0.2%	-3.6	0.9	6	4	-10
COc1cc2c(oc(=O)c3cc(C)cc(OC)c32)c2c(C3OC(C)C(O)C(C)(O)C3O)ccc(O)c12 (stereo not drawn)
    -5.6%	1.7	0.5	-21	-5	-5
O=S(=O)(Nc1ccc(S(=O)(=O)N2CCCCC2)cc1)c1ccc(Br)s1
    -2.1%	-2.5	-0.6	-1	-7	-17
Cc1ccc(-c2nc(-c3ccccc3)no2)c(Cl)c1
    28%	-1.2	-0.3	-1	78	-8
O=C(CP(=O)(CO)CO)c1ccc(Cl)cc1
    -1.9%[38.3 µM]	-0.7	-0.2	18	3	-3
Cc1ccc(NC(=S)N(Cc2cccs2)Cc2cc3cccc(C)c3[nH]c2=O)cc1
    2.7%	-0.8	1.1	0	-5	17
CCOC(=O)CC1=C(C(=O)OCC)C(c2ccc(C)o2)C(C#N)=C(N)O1 (stereo not drawn)
    -0.2%	0.4	0.7	-1	-6	19
CCOc1cc(C2C(C#N)=C(N)Oc3n[nH]c(-c4ccncc4)c32)cc([N+](=O)[O-])c1O (stereo not drawn)
    -2.1%	-2.9	-0.1	-16	-15	-5
Cc1c(Cl)c(=O)oc2cc(OCC(=O)NCc3cccs3)ccc12
    0.9%	-1.8	0.2	1	4	0
CCOC(=O)C1(C)CCN1C(=O)c1ccc2c(c1)CCO2 (stereo not drawn)
    1.4%	-5.3	-0.4	35	27	3
Cc1ccc(C)c(OCC(O)CN2C(C)CCCC2C)c1 (stereo not drawn)
    -0.1%	-1.2	-0.5	0	10	-9
CC(OC(=O)CCCC(=O)Nc1ccccc1)C(=O)c1ccccc1 (stereo not drawn)
    -0.6%	-3.3	1.7	-8	0	-11
COCCNC(=O)CNC(=S)N(Cc1ccccc1)Cc1cccnc1
    -2.0%	-5.6	-0.2	10	25	-11
CC(C)c1nnc(NC(=O)c2ccc3c(c2)OCO3)s1
    2.3%	-3.6	2.7	9	5	-4
Cc1c(CCC(=O)NCCCn2ccnc2)c(=O)oc2cc3oc4c(c3cc12)CCCC4
    4.1%	5.5	1.0	5	-21	-6
Cc1ccc(S(=O)(=O)N2CCN(c3ccc([N+](=O)[O-])c(Sc4nncn4C)c3)CC2)cc1
    0.0%	-2.7	1.7	-6	-9	-19
Cc1ccc(C)c(N2CCN(C(=S)Nc3ccc4nc(N5CCOCC5)cc(C)c4c3)CC2)c1
    11%	1.9	1.1	2	-2	-12
CCOc1cc(C2NC(=O)NC(c3ccccc3)=C2C(C)=O)ccc1OCC(N)=O (stereo not drawn)
    -1.7%	-2.0	1.0	-2	9	-9
CC1OC23CCCCC2C(C#N)(C(=N)O3)C1(C#N)C#N (stereo not drawn)
    -2.4%	-4.7	-0.3	0	6	4
CC(=O)Nc1ccccc1C(=O)N1CCN(Cc2ccc3c(c2)OCO3)CC1
    -0.1%	-12	-0.6	7	-2	-4
CCOC(=O)C1CCCN(c2c(Nc3cc(C)cc(C)c3)c(=O)c2=O)C1 (stereo not drawn)
    4.4%	-4.4	-0.5	-1	-6	-4
O=C(Nc1ccccc1F)c1cc(C(=O)Nc2ccccc2F)cc([N+](=O)[O-])c1
    -0.3%	-0.3	0.7	-10	2	-13
O=C(c1ccccc1)N1CCN(c2cc(Cl)nc3cc(-c4cccc(Cl)c4)nn23)CC1
    0.8%	-1.3	2.1	-6	-12	-3
CCOc1ccc(NC(=S)NNC(=S)Nc2cccc(C(F)(F)F)c2)cc1
    2.7%	-1.0	2.6	0	-15	-6
Cc1ncc(CO)n1Cc1ccc(Cl)cc1
    -0.1%	-4.0	-0.6	0	12	-12
C=C(C)COc1ccc(-c2ncncc2-c2ccc(OC)cc2)c(O)c1
    9.9%	-0.8	2.7	-18	-13	-2
CCCN(CC(=O)Nc1ccc(F)c(F)c1F)Cc1cc(=O)n2ccsc2n1
    -1.4%	-2.0	0.7	17	-4	-5
CN(c1cccc(NS(=O)(=O)c2cccs2)c1)S(C)(=O)=O
    -0.4%	3.0	-0.4	3	10	-3
O=C1/C(=C\c2ccncc2)SC(=S)N1C1CCCCC1
    13%	1.3	0.9	-1	6	5
COc1ccc(/C=N/NC(=O)c2cccc(Br)c2)cc1Cn1cc(Cl)cn1
    0.0%	1.4	2.8	15	9	-46

Further results:
Screens in order – PINK1 modulator	D2 ag	TRPML1 ag	CtBP-E1A blk	Six1-Eya2 inh	D2 PAM
N/C(=N\c1nc2ccccc2o1)NC(=O)C(Cc1ccccc1)N1C(=O)c2ccccc2C1=O (stereo not drawn)
    9.8%	-2.2	0.9	-15	-18	-3
O=C(NC(=S)NCC1CCCO1)c1cccs1 (stereo not drawn)
    0.5%	-1.7	0.0	2	3	-2
COC(=O)c1ccc(N2CCN(C)CC2)c(NC(=O)c2sc3ccccc3c2Cl)c1
    0.2%	-2.3	0.3	0	-5	-1
Cc1cccc2cc(CN(Cc3nnnn3C3CCCCC3)C3CCCC3)c3nnnn3c12
    2.6%	-1.3	-0.9	4	2	1
O=C(O)c1c[nH]c(=O)c2ccccc12
    -1.8%	1.2	0.0	2	23	-2

Structures above containing a CF3 group:
Screens in order – PINK1 modulator	D2 ag	TRPML1 ag	CtBP-E1A blk	Six1-Eya2 inh	D2 PAM
O=C(c1[nH]c(C(F)(F)F)nc1-c1ccccc1)N1CCc2ccccc2C1
    1.1%	-3.4	-0.3	4	-2	-2
CCOc1ccc(NC(=S)NNC(=S)Nc2cccc(C(F)(F)F)c2)cc1
    2.7%	-1.0	2.6	0	-15	-6
